High-throughput results as filed in PubChem BioAssay.
rRNA inh HTS = inhibitors of bacterial rRNA selective over humanized ribosomes. E. coli WT GFP vs humanized-ribosome RFP mutants, fluorescence, 24 h; stronger effect = lower value; DMSO median 0, no signal -100. GFP signal change (wild-type ribosome), % (concentration not given with the values). actives 1.6% (n = 350,000). AID 720706;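 active = significant combined selectivity score with lowered wild-type GFP, culture density cut under 30%, mutant RFP and density less affected; inactive = any of these conditions unmet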; also: one replicate is shown; some compounds called inactive have numbers as strong as hits
rRNA inh HTS OD600 = second read-out of rRNA inh HTS, no call of its own (marks repeat the call); OD600 change, %; measured here: OD600 growth;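 optical density of the mix in the first replicate; 0 = DMSO median and -100 = no signal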
rRNA inh HTS RFP = recorded beside rRNA inh HTS, whose call it bears; RFP signal change, %; measured here: RFP humanized mutant strains;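 first replicate; 0 = DMSO median and -100 = no signal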
Starred values were filed as active, the others as inactive. Some of the compounds tested; count on the stated rates, not on these rows.

rRNA inh HTS	rRNA inh HTS OD600	rRNA inh HTS RFP	compound
-3	-10	0.4	C/C=C/c1ccc([C@H]2[C@@H](CO)N(C(C)=O)[C@@H]2CN(CCC)C(=O)C2CCC2)cc1
3	19	0.5	O=C(CN1CCOCC1)N[C@H]1CC[C@@H](CCNS(=O)(=O)c2ccccc2F)O[C@@H]1CO
0	8	-1.3	O=C(Nc1ccccc1F)N1CC(=O)N2[C@@H](CO)[C@H](c3ccc(-c4cccnc4)cc3)[C@@H]2C1
-4	-11	-0.9	CC(=O)N1[C@@H](CO)[C@@H](c2ccc(-c3cccc(F)c3)cc2)[C@@H]1CNC(=O)C1CC1
-6	-16	0.5	CCCNC(=O)N(C)C[C@H]1Oc2cc(-c3ccccc3F)ccc2S(=O)(=O)N([C@H](C)CO)C[C@H]1C
1	8	-0.5	CCC(=O)N[C@H]1C=C[C@H](CC(=O)NCc2ccc(OC)cc2)O[C@H]1CO
4	6	-0.2	C[C@@H]1CN([C@@H](C)CO)C(=O)c2cc(C#CCN(C)C)cnc2O[C@@H]1CN(C)S(=O)(=O)c1ccccc1
2	-13	-3.8	C/C=C/c1ccc([C@H]2[C@H](CO)N3C(=O)CN(C(=O)c4cccc(F)c4)C[C@@H]23)cc1
-2	2	-1.4	CC[C@H]1CC=CC[C@@H](C)Oc2ccccc2C(=O)N(C)[C@@H](C(C)C)C(=O)N1 (mixture of isomers)
3	5	-1.1	CNC[C@H]1Oc2c(NC(=O)c3ccncc3)cccc2C(=O)N([C@@H](C)CO)C[C@@H]1C
3	4	-2.0	CO[C@@H]1CN(C)C(=O)c2ccc(NC(=O)C3CCCCC3)cc2OC[C@@H](C)N(C)C[C@H]1C
1	3	-3.3	O=C(NC1CCC1)[C@@H]1[C@@H](CO)[C@@H]2Cn3c(ccc(-c4ccc(F)cc4)c3=O)[C@H]1N2Cc1cocn1
0	-3	2.5	C[C@@H]1CN([C@@H](C)CO)C(=O)c2cc(NC(=O)C3CCCCC3)ccc2O[C@@H](C)CCCCO[C@H]1CN(C)S(=O)(=O)c1ccc(F)cc1
0	2	0.7	CCCC(=O)Nc1ccc2c(c1)C(=O)N(C)C[C@@H](OC)[C@@H](C)CN(C(=O)c1ccccn1)[C@@H](C)CO2
-2	8	-4.1	O=C(C[C@@H]1C[C@@H]2c3cc(NC(=O)NC4CCCCC4)ccc3O[C@@H]2[C@H](CO)O1)NCCc1ccccc1
2	10	-0.7	CC(C)NC(=O)Nc1ccc2c(c1)CC(=O)N([C@H](C)CO)C[C@@H](C)[C@H](CN(C)S(C)(=O)=O)O2
0	-3	2.9	CO[C@H]1CN(C)C(=O)c2cc(NC(C)=O)ccc2OC[C@@H](C)N(CC2CCCCC2)C[C@@H]1C
-4	-3	0.6	O=C(C1CCOCC1)N1CC(=O)N2[C@@H](CO)[C@@H](c3ccc(C#CCc4ccccc4)cc3)[C@@H]2C1
0	14	-5.3	Cn1cnc(S(=O)(=O)N2C[C@@H](O)COC[C@H]3O[C@@H](CC(=O)NC4CCCC4)CC[C@@H]32)c1
-2	8	3.6	CCCNC(=O)N1CC(=O)N2[C@H](CO)[C@@H](c3ccc(-c4ccc(C)cc4)cc3)[C@H]2C1
4	2	-0.1	C[C@@H]1CN([C@@H](C)CO)C(=O)c2cc(NC(=O)C3CC3)ccc2O[C@@H]1CN(C)S(C)(=O)=O
-6	-8	0.1	COc1cccc(C(=O)Nc2ccc3c(c2)OC[C@@H](C)N(C(C)=O)C[C@H](C)[C@@H](OC)CN(C)C3=O)c1
-2	3	-1.8	CCCC(=O)N1CC2(CCN(C(=O)NC(C)C)CC2)c2c(n(C)c3cc(OC)ccc23)[C@@H]1CO
0	5	-0.4	O=C(Cc1cccnc1)N1CC(=O)N2[C@@H](CO)[C@H](c3ccc(-c4cccc(F)c4)cc3)[C@@H]2C1
-2	7	-1.6	C[C@@H]1CCCCO[C@@H](CN(C)C(=O)Nc2cccc3ccccc23)[C@H](C)CN([C@@H](C)CO)C(=O)c2cc(NC(=O)Nc3ccc4c(c3)OCO4)ccc2O1
1	3	-1.1	COc1ccc2c3c(n(C)c2c1)[C@@H](CO)N(C(=O)CN1CCOCC1)CC31CCN(Cc2ccncc2)CC1
-1	-6	7.3	CC(C)CC#Cc1cnc2c(c1)C(=O)N([C@H](C)CO)C[C@H](C)[C@@H](CN(C)C(=O)c1cccc(F)c1)O2
3	6	-0.4	C[C@@H]1CN([C@@H](C)CO)C(=O)c2cccc(NS(=O)(=O)c3cccs3)c2O[C@H]1CN(C)C(=O)Nc1ccccc1
5	5	-1.2	CNC[C@@H]1OCCCC[C@H](C)Oc2ccc(NC(=O)NC3CCCCC3)cc2C(=O)N([C@@H](C)CO)C[C@H]1C
-2	-9	-1.5	C[C@H]1CN([C@@H](C)CO)C(=O)Cc2cc(NC(=O)CCCCCC(=O)Nc3ccccc3N)ccc2O[C@@H]1CN(C)S(=O)(=O)c1ccc(Cl)cc1
0	-2	-1.7	C/C=C/c1ccc([C@@H]2[C@@H](CO)N(C(=O)c3cnccn3)C23CN(C(=O)C2CC2)C3)cc1
2	3	0.2	O=C(C[C@H]1C=C[C@H](NC(=O)c2ccc3c(c2)OCO3)[C@H](CO)O1)NCc1ccc(F)cc1
4	-1	-0.1	CCC(=O)Nc1ccc2c(c1)OC[C@@H](C)N(C(=O)c1cnccn1)C[C@H](C)[C@H](OC)CN(C)C2=O
0	-2	0.5	Cc1ccc(S(=O)(=O)N(C)C[C@H]2OCCCC[C@H](C)Oc3ccc(NC(=O)Cc4ccccc4)cc3C(=O)N([C@H](C)CO)C[C@@H]2C)cc1
-5	-1	-5.1	C[C@H](CO)N1C[C@H](C)[C@@H](CN(C)S(=O)(=O)c2ccc(Cl)cc2)OCCCC[C@H](C)Oc2ccc(NC(=O)Nc3cccc4ccccc34)cc2C1=O
5	10	0.5	C[C@H]1CN([C@@H](C)CO)C(=O)c2cc(-c3ccncc3)cnc2O[C@@H]1CN(C)C(=O)C1CC1
8	12	-1.2	C[C@@H]1CN([C@@H](C)CO)C(=O)c2cc(C3=CCCCC3)cnc2O[C@@H]1CN(C)S(C)(=O)=O
3	7	-0.8	CN(C)CC#Cc1ccc([C@H]2[C@@H](CO)N3CCCCN(C(=O)C4CCC4)C[C@@H]23)cc1
4	-5	-2.4	COc1ccc2c3c(n(C)c2c1)[C@@H](CO)N(CC1CC1)CC31CCN(C(C)=O)CC1
3	2	0.8	CNC[C@@H]1Oc2ccc(NC(=O)Nc3cccc4ccccc34)cc2CC(=O)N([C@@H](C)CO)C[C@@H]1C

Some entries already given, reduced to rRNA inh HTS RFP and rRNA inh HTS OD600.
| mol | rRNA inh HTS RFP | rRNA inh HTS OD600 |
| --- | --- | --- |
| C[C@@H]1CCCCO[C@@H](CN(C)C(=O)Nc2cccc3ccccc23)[C@H](C)CN([C@@H](C)CO)C(=O)c2cc(NC(=O)Nc3ccc4c(c3)OCO4)ccc2O1 | -1.6 | 7 |
| C[C@@H]1CN([C@@H](C)CO)C(=O)c2cc(NC(=O)C3CCCCC3)ccc2O[C@@H](C)CCCCO[C@H]1CN(C)S(=O)(=O)c1ccc(F)cc1 | 2.5 | -3 |
| C/C=C/c1ccc([C@H]2[C@H](CO)N3C(=O)CN(C(=O)c4cccc(F)c4)C[C@@H]23)cc1 | -3.8 | -13 |
| CNC[C@@H]1OCCCC[C@H](C)Oc2ccc(NC(=O)NC3CCCCC3)cc2C(=O)N([C@@H](C)CO)C[C@H]1C | -1.2 | 5 |
| CC(C)NC(=O)Nc1ccc2c(c1)CC(=O)N([C@H](C)CO)C[C@@H](C)[C@H](CN(C)S(C)(=O)=O)O2 | -0.7 | 10 |

The list goes on:
rRNA inh HTS	rRNA inh HTS OD600	rRNA inh HTS RFP	compound
1	-2	-1.3	C[C@@H]1CCCCO[C@@H](CN(C)Cc2ccncc2)[C@@H](C)CN([C@@H](C)CO)C(=O)c2cc(NC(=O)Cc3ccccc3)ccc2O1
-5	4	-4.0	C[C@@H]1CN([C@H](C)CO)C(=O)c2cc(NC(=O)CCC(F)(F)F)ccc2O[C@@H]1CN(C)Cc1ccncc1
-1	-3	1.6	CN(C)C(=O)c1ccc(-c2ccccc2[C@@H]2[C@@H](C#N)N(C(=O)C3CC3)[C@H]2CO)cc1
1	6	2.8	C/C=C/c1ccc([C@H]2[C@H](CO)N(C(=O)C3CCCC3)C23CN(C(=O)NC(C)C)C3)cc1
-2	0	-2.1	CCCC(=O)Nc1ccc2c(c1)C(=O)N(C)C[C@H](OC)[C@@H](C)CN(Cc1ccncc1)[C@H](C)CO2
3	4	-0.3	CCCNC(=O)N[C@@H]1CC[C@H](CC(=O)NC2CCC2)O[C@H]1CO
-7	-1	-3.3	O=C(C[C@@H]1C=C[C@H](NC(=O)C2CCOCC2)[C@@H](CO)O1)NCc1ccccc1Cl
-51	-71	-1.2	Cc1ccc(-c2ccc([C@@H]3[C@H](CO)N4C(=O)CN(C(=O)Nc5ccc(F)cc5)C[C@@H]34)cc2)cc1
-2	-7	3.5	CNC[C@H]1Oc2cc(C#Cc3ccccc3F)ccc2S(=O)(=O)N([C@@H](C)CO)C[C@@H]1C
2	-1	1.9	C[C@@H]1CN([C@@H](C)CO)S(=O)(=O)c2ccc(C#CCN(C)C)cc2O[C@@H]1CN(C)Cc1ccccn1
4	9	-2.7	Cc1noc(C)c1NC(=O)Nc1ccc2c(c1)CC(=O)N([C@@H](C)CO)C[C@H](C)[C@H](CN(C)C(=O)NC1CCCCC1)O2
0	-7	0.8	C[C@@H]1CN([C@@H](C)CO)C(=O)c2c(c3ccccc3n2C)-c2ccccc2CO[C@H]1CN(C)C(=O)Nc1cccc(C(F)(F)F)c1
-2	-33	17	Cc1cccc(-c2ccc([C@H]3[C@H](CO)N4C(=O)CN(C(=O)NC5CCCCC5)C[C@@H]34)cc2)c1
1	1	-0.4	COc1ccccc1C(=O)N1C[C@@H]2[C@H](c3ccccc31)[C@@H](CO)N2CC1CCOCC1
-3	-34	27	O=C(Cc1ccccc1)N1CC(=O)N2[C@H](C1)[C@H](c1ccc(C#CCc3ccccc3)cc1)[C@@H]2CO
1	6	-1.4	C[C@@H]1CCCCO[C@H](CN(C)S(C)(=O)=O)[C@@H](C)CN([C@@H](C)CO)C(=O)c2cc(NC(=O)CCC(F)(F)F)ccc2O1
-4	-4	-0.8	C[C@H](CO)N1C[C@H](C)[C@H](CN(C)Cc2ccc3cccnc3c2)OCc2cn(nn2)CCCC1=O
-54	-79	-15	COC(=O)C1=C(C)N(C)C(=NCc2cccc(C(F)(F)F)c2)NC1c1ccc(F)cc1 (stereo not drawn)
3	5	-3.0	CN(C)C(=O)[C@H]1[C@H](CO)[C@H]2Cn3c(ccc(-c4ccncc4)c3=O)[C@@H]1N2C(=O)NC1CCCC1
4	3	-5.7	COc1ccc([C@@H]2CC=CC[C@H](C)Oc3ccccc3C(=O)N(C)[C@@H](Cc3ccccc3)C(=O)N2)c(OC)c1 (mixture of isomers)

Whole records as entered above:
Results for C[C@H](CO)N1C[C@H](C)[C@H](CN(C)Cc2ccc3cccnc3c2)OCc2cn(nn2)CCCC1=O → rRNA inh HTS = -4; rRNA inh HTS OD600 = -4; rRNA inh HTS RFP = -0.8
Results for CCCC(=O)Nc1ccc2c(c1)C(=O)N(C)C[C@H](OC)[C@@H](C)CN(Cc1ccncc1)[C@H](C)CO2 → rRNA inh HTS = -2; rRNA inh HTS OD600 = 0; rRNA inh HTS RFP = -2.1
Results for C[C@@H]1CCCCO[C@@H](CN(C)Cc2ccncc2)[C@@H](C)CN([C@@H](C)CO)C(=O)c2cc(NC(=O)Cc3ccccc3)ccc2O1 → rRNA inh HTS = 1; rRNA inh HTS OD600 = -2; rRNA inh HTS RFP = -1.3

(list continues)
rRNA inh HTS	rRNA inh HTS OD600	rRNA inh HTS RFP	compound
4	11	2.7	CC(=O)N1CC(=O)N2[C@H](CO)[C@@H](c3ccc(-c4ccncc4)cc3)[C@@H]2C1
-8	-9	-2.7	C[C@H](CO)N1C[C@H](C)[C@H](CN(C)C(=O)C2CCCCC2)Oc2cc(Br)ccc2S1(=O)=O
-1	-6	0.8	COc1ccc(S(=O)(=O)N(C)C[C@@H]2Oc3ccc(NC(=O)NC(C)C)cc3C(=O)N([C@@H](C)CO)C[C@H]2C)cc1
2	-3	2.6	CCN(C[C@@H]1[C@@H](c2ccc(-c3ccccc3)cc2)[C@@H](CO)N1CC1CC1)C(C)=O
-5	-5	0.2	COc1ccc(C#Cc2ccc3c(c2)[C@H]2[C@H](CCN2C(=O)C2CCOCC2)[C@H](CO)N3)cc1
3	2	-1.1	C[C@@H]1CCCCO[C@H](CN(C)C)[C@@H](C)CN([C@@H](C)CO)C(=O)c2cc(NS(=O)(=O)c3ccc(F)cc3)ccc2O1
3	-4	1.1	COc1ccc(CN(C)C[C@H]2OCCCC[C@H](C)Oc3ccc(NS(=O)(=O)c4ccc(C)cc4)cc3C(=O)N([C@H](C)CO)C[C@@H]2C)cc1
-1	-7	-0.7	O=C(C[C@@H]1C[C@@H]2c3cc(NS(=O)(=O)c4ccc(F)cc4)ccc3O[C@@H]2[C@@H](CO)O1)N1CCOCC1
-3	-23	10	C[C@H]1CCCCO[C@H](CN(C)Cc2ccc(C(F)(F)F)cc2)[C@@H](C)CN([C@@H](C)CO)C(=O)c2cc(NS(=O)(=O)c3ccccc3)ccc2O1
1	1	0.7	CCCNC(=O)N1[C@H](CO)[C@H](c2ccc(C3=CCCC3)cc2)[C@@H]1CN(C)C(C)=O
3	20	-3.2	O=C(Nc1ccccc1F)N1CC(=O)N2[C@@H](CO)[C@@H](c3ccc(-c4cccnc4)cc3)[C@@H]2C1
-2	2	-0.3	COc1ccc2c3c(n(C)c2c1)[C@H](CO)N(C(=O)c1ccccc1)CC31CN(CC2CC2)C1
3	-42	25	O=C(C1CC1)N1CC(=O)N2[C@H](CO)[C@H](c3ccc(C#Cc4cccc(F)c4)cc3)[C@@H]2C1
-29	-59	23	C[C@@H]1CCCCO[C@H](CN(C)Cc2ccccc2)[C@H](C)CN([C@@H](C)CO)C(=O)c2cc(NS(=O)(=O)c3ccc(Cl)cc3)ccc2O1
